# Screening results (PubChem BioAssay)
# MLL AF4-AF9 inh = inhibitors of AF4 peptide binding to AF9, primary screen, biochemical, AlphaScreen, biotin-AF4 peptide, FLAG-AF9, single point; AID 651704, 2012; inhibition, % at 10 µM; actives 0.47% (n = 350,000); Protein AF-9 (Homo sapiens), P42568;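 active means every replicate reaching a set inhibition limit, whatever the replicate mean, cut at about 25% in these data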;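 further: 0% = plate neutral control median and 100% = total signal loss; the record names both 10 and 1 µM as test concentration; the first replicate is given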
# Target sequence (P42568 whole entry, looked up): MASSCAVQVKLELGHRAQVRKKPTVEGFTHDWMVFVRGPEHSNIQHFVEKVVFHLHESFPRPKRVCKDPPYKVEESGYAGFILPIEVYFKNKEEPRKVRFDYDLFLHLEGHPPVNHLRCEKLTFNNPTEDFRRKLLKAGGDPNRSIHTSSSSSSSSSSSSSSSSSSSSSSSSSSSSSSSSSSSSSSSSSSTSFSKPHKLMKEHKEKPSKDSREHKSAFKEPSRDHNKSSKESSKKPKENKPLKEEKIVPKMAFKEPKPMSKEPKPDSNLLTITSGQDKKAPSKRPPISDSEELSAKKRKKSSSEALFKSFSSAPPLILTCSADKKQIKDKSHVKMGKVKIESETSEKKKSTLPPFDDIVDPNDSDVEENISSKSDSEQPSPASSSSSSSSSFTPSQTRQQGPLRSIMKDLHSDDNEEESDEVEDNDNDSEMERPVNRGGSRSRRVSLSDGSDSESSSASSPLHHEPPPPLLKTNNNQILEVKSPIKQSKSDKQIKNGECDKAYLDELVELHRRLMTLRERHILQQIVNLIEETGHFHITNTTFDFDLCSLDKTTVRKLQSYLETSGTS
# An asterisk follows results filed as active; & = joins results of further samples. The list is partial (hit frequency here may not be typical).
MLL AF4-AF9 inh,molecule
-1.3,C[C@@H]1CN([C@@H](C)CO)C(=O)c2cc(NC(=O)Cn3cnnn3)ccc2O[C@H]1CN(C)Cc1ccncc1
2.4,Nc1ccc(-c2cc(NC=O)c3ncc(-c4cccc(C(F)(F)F)c4)n3c2)cn1
-2.5,COc1ccc(/C=C/c2cc(O)cc(O[C@@H]3O[C@H](CO)[C@@H](O)[C@H](O)[C@H]3O)c2)cc1O
-1.2,COc1cccc(S(=O)(=O)Nc2ccc3c(c2)OC[C@@H](C)NC[C@@H](C)[C@H](OC)CN(C)C3=O)c1
-4.6,COc1ccccc1NC(=O)N[C@@H]1CC[C@H](CC(=O)N[C@@H](C)c2ccccc2)O[C@H]1CO
1.6,COc1ccc2c3c(n(C)c2c1)[C@@H](CO)N(C(=O)C1CC1)CC31CCN(C(=O)C2CCOCC2)CC1
-4.5&-3.3,O=C(C1CCCC1)N1C[C@@H]2N[C@H](C1)C2c1ccc(-c2ccncc2)cc1 (stereo not given in full)
0.1,CCCNC(=O)C[C@@H]1CC[C@@H]2[C@H](COc3ccc(NC(=O)Nc4ccccc4F)cc3C(=O)N2C)O1
-5.2,CO[C@@H]1CC[C@@H]2CCN(C)C(=O)[C@@H](C)[C@H](OC)CN(C)C(=O)c3cccc(C#N)c3OC[C@@H]1O2
-4.0,Cc1noc(C)c1NC(=O)Nc1ccc2c(c1)C(=O)N([C@@H](C)CO)C[C@@H](C)[C@H](CN(C)C(=O)c1ccccc1)OCCCC[C@@H](C)O2
4.0,C[C@H](CO)N1C[C@H](C)[C@H](CN(C)Cc2cccc(C(F)(F)F)c2)Oc2ncc(C#CCN(C)C)cc2C1=O
-1.6,COCC(=O)N1CC2(C1)CN(S(C)(=O)=O)[C@H](CO)c1c2c2ccc(OC)cc2n1C
-0.2,COC(=O)[C@]12C[C@H](CC(=O)NCc3ccccc3)C(=O)N(CCC3=CCCCC3)C1=C[C@H](COCc1ccccc1)O[C@@H]2C
-0.9,C[C@H](CO)N1C[C@H](C)[C@H](CN(C)Cc2ccccc2)Oc2ccc(NS(=O)(=O)c3ccccc3)cc2C1=O
1.9,C[C@H](NC(=O)[C@@H]1N[C@@H]2c3ccc(-c4cccnc4)c(=O)n3C[C@@H]2[C@H]1CO)c1ccccc1

# Fetched by structure from the entries so far, three records:
MLL AF4-AF9 inh,molecule
4.0,C[C@H](CO)N1C[C@H](C)[C@H](CN(C)Cc2cccc(C(F)(F)F)c2)Oc2ncc(C#CCN(C)C)cc2C1=O
-0.9,C[C@H](CO)N1C[C@H](C)[C@H](CN(C)Cc2ccccc2)Oc2ccc(NS(=O)(=O)c3ccccc3)cc2C1=O
-0.2,COC(=O)[C@]12C[C@H](CC(=O)NCc3ccccc3)C(=O)N(CCC3=CCCCC3)C1=C[C@H](COCc1ccccc1)O[C@@H]2C

# The main list resumes with the three entries that preceded the break.
MLL AF4-AF9 inh,molecule
-0.2,COC(=O)[C@]12C[C@H](CC(=O)NCc3ccccc3)C(=O)N(CCC3=CCCCC3)C1=C[C@H](COCc1ccccc1)O[C@@H]2C
-0.9,C[C@H](CO)N1C[C@H](C)[C@H](CN(C)Cc2ccccc2)Oc2ccc(NS(=O)(=O)c3ccccc3)cc2C1=O
1.9,C[C@H](NC(=O)[C@@H]1N[C@@H]2c3ccc(-c4cccnc4)c(=O)n3C[C@@H]2[C@H]1CO)c1ccccc1
1.1,COc1ccc([C@H]2C[C@@H](O)[C@H](n3cc(COC(=O)c4ccccc4)nn3)CN2Cc2cccs2)cc1
-2.6,COCC(=O)Nc1ccc2c(c1)[C@H]1C[C@H](CC(=O)NCc3ccc4c(c3)OCO4)O[C@H](CO)[C@H]1O2
0.2,COc1cccc(-c2cc3nc(NCc4ccccc4OC)n(C)c(=O)c3s2)c1
-0.7,C[C@H]1CN([C@@H](C)CO)C(=O)c2cc(NC(=O)CCCCCC(=O)Nc3ccccc3N)ccc2O[C@@H]1CN(C)C(=O)Nc1ccc2c(c1)OCO2
4.3,CN1c2ccc(C#Cc3cccnc3)cc2[C@@H]2[C@@H](CCN2C(=O)C2CCCC2)[C@H]1CO
-1.1,CCCNC(=O)[C@H]1[C@H](CO)[C@H]2Cn3c(ccc(-c4ccccc4F)c3=O)[C@H]2N1CC1CC1
-1.4,C/C=C/c1cnc2c(c1)C(=O)N([C@@H](C)CO)C[C@H](C)[C@@H](CN(C)C(=O)c1cccc(F)c1)O2
-1.2,O=C(C[C@H]1CC[C@@H]2[C@H](COC[C@H](O)CN2C(=O)Nc2ccccc2)O1)NCCCN1CCOCC1
2.4,COC(=O)[C@@]1(Cc2ccc(OC)cc2)[C@H]2c3cc(C(=O)N4CCCC4)n(Cc4ccc(OC(F)(F)F)cc4)c3C[C@H]2CN1C(=O)c1ccccc1
-2.4,C[C@@H]1CCCCO[C@H](CN(C)Cc2ccncc2)[C@@H](C)CN([C@H](C)CO)C(=O)c2cc(NC(=O)Cc3ccccc3)ccc2O1
1.5,Cc1nc2c(OCCOc3ccccc3)cccn2c1N(C)C(=O)CCC1CCCC1
-1.3,O=C(c1cnccn1)N1CC[C@@H]2[C@@H](CO)Nc3ccc(-c4ccccc4F)cc3[C@@H]21
1.1,N#C[C@H]1[C@@H](c2ccc(-c3ccccc3F)cc2)[C@@H](CO)N1C(=O)C1CCC1
4.9,Cc1cccc(S(=O)(=O)N2C[C@@H]3[C@H](c4ccccc42)[C@H](CO)N3C(=O)c2ccccc2)c1
1.0&-2.2,C[C@H](CO)N1C[C@H](C)[C@@H](CN(C)S(=O)(=O)c2ccc3ccccc3c2)OCc2cn(nn2)CCCC1=O
0.5,COC(=O)C1=C(C)N(Cc2ccc(C(F)(F)F)cc2)C(=NCc2ccc(C(F)(F)F)cc2)NC1c1ccc(F)cc1 (stereo not given)
3.3,Cc1noc(C)c1NC(=O)N(C)C[C@H]1Oc2ccc(NC(=O)Nc3cccc4ccccc34)cc2CC(=O)N([C@H](C)CO)C[C@@H]1C
-1.9,C[C@@H]1CN([C@@H](C)CO)S(=O)(=O)c2ccc(/C=C/c3ccccc3)cc2O[C@@H]1CN(C)C(=O)Nc1cccc(F)c1
-2.6,CCCNC(=O)N1C[C@@H](O)COC[C@@H]2O[C@@H](CC(=O)N3CCOCC3)CC[C@H]21
0.1,C[C@@H]1CCCCO[C@@H](CN(C)C(=O)CCC(F)(F)F)[C@@H](C)CN([C@@H](C)CO)C(=O)c2cc(NS(C)(=O)=O)ccc2O1
6.0,C[C@@H]1CN([C@@H](C)CO)C(=O)c2cccc(NC(=O)Nc3ccc(C(F)(F)F)cc3)c2O[C@H]1CN(C)Cc1ccc(Oc2ccccc2)cc1
0.8,CC=Cc1ccc2n(c1=O)C[C@H]1[C@H](CO)[C@@H](C(=O)NCC3CC3)N(C(=O)C3CCOCC3)[C@@H]21 (mixture of isomers)
-4.0,CCCNC(=O)[C@H]1[C@H](CO)[C@H]2Cn3c(ccc(-c4ccc(F)cc4)c3=O)[C@@H]1N2CCC
-4.2,C[C@H]1C=C(C(=O)Nc2ccccc2)O[C@@H](OCCCCO)C1
1.8,O=C(C[C@H]1C[C@@H]2c3cc(NC(=O)NC4CCCC4)ccc3O[C@@H]2[C@@H](CO)O1)NCc1ccc2c(c1)OCO2
0.4,CO[C@@H]1CC[C@@H]2CCN(C)C(=O)[C@@H](C)CN(C)C(=O)c3cccc(C#N)c3OC[C@@H]1O2
-5.1,CC(C)NC(=O)N(C)C[C@H]1Oc2ccc(NC(=O)CCC(F)(F)F)cc2CC(=O)N([C@@H](C)CO)C[C@@H]1C
-1.4,C[C@@H]1CCCCO[C@@H](CN(C)S(=O)(=O)c2ccc(F)cc2)[C@H](C)CN([C@@H](C)CO)C(=O)c2cc(NC(=O)C3CCCCC3)ccc2O1
0.7,C=CCOC(=O)[C@H]1[C@@H]2C(=O)O[C@@H](c3ccccc3)[C@@H](c3ccccc3)N2[C@@H](c2ccc(OCCOC(=O)[C@H]3C[C@H]4C(=O)NCC(=O)N4[C@H]3c3ccc(O)cc3)cc2)[C@]12C(=O)Nc1ccccc12
0.3,C[C@H](NC(=O)c1ncn2c1C(=O)N(C)CC2)C(=O)OC(C)(C)C

# Reformatted field by field: part of the list above
> COC(=O)C1=C(C)N(Cc2ccc(C(F)(F)F)cc2)C(=NCc2ccc(C(F)(F)F)cc2)NC1c1ccc(F)cc1 (stereo not given)
- MLL AF4-AF9 inh: 0.5

> CCCNC(=O)N1C[C@@H](O)COC[C@@H]2O[C@@H](CC(=O)N3CCOCC3)CC[C@H]21
- MLL AF4-AF9 inh: -2.6

# Continued:
MLL AF4-AF9 inh,molecule
-1.8,COCC#Cc1ccc(CC[C@H]2O[C@H]3CC[C@H](CO)O[C@H]3C[C@H]2NC(=O)Nc2c(C)noc2C)cc1
-1.3,C[C@@H]1CN([C@H](C)CO)C(=O)c2cccc(NC(=O)c3ccncc3)c2O[C@@H]1CN(C)C
2.2,C[C@H](CO)N1C[C@H](C)[C@H](CN(C)C(=O)Nc2ccc(F)cc2)Oc2ncc(-c3cccc(F)c3)cc2C1=O
11.4,COc1cccc(CN2CCC3(CC2)CN(S(C)(=O)=O)[C@H](CO)c2[nH]c4cc(OC)ccc4c23)c1
-0.6,COc1ccc2c3c(n(C)c2c1)[C@H](CO)N(C(=O)CN(C)C)CC31CN(C(=O)NC(C)C)C1
-0.9,CN(C)C(=O)c1ccc(-c2ccc([C@@H]3[C@@H](C#N)N(C(=O)Nc4ccccc4F)[C@H]3CO)cc2)cc1
0.5,Cc1ccc(S(=O)(=O)Nc2cccc3c2O[C@@H](CN(C)CC2CCCCC2)[C@H](C)CN([C@@H](C)CO)C3=O)cc1
-15.8,COc1ccc(S(=O)(=O)Nc2ccc3c(c2)C(=O)N([C@H](C)CO)C[C@@H](C)[C@@H](CN(C)C(=O)Nc2cccc4ccccc24)O3)cc1
-5.3,CN(C)CCN(C)C1CN(Cc2ccccc2)S(=O)(=O)C1 (stereo not given)
-1.7,CCc1cc(-c2nnn(CCC3COCCO3)c2CC)ccc1-c1cn(Cc2ccccc2)nn1 (stereo not given)
-2.3,CC(C)NC(=O)N[C@@H]1CC[C@@H](CCn2cc(-c3ccccc3)nn2)O[C@@H]1CO
-3.4,C[C@@H]1CN([C@H](C)CO)C(=O)c2cc(NS(=O)(=O)c3ccc(Cl)cc3)ccc2O[C@@H](C)CCCCO[C@@H]1CN(C)C(=O)c1ccncc1
5.2,C[C@H]1CN([C@@H](C)CO)C(=O)c2cc(-c3cncnc3)cnc2O[C@H]1CN(C)Cc1ccc(Oc2ccccc2)cc1
-1.4,Cc1noc(C)c1NC(=O)N[C@@H]1CC[C@@H](CCNC(=O)C2CCCCC2)O[C@@H]1CO
20.7,CO[C@@H]1CC[C@@H]2CCOc3ccc(C#N)cc3C(=O)N(C)CCCC(=O)N(C)C[C@@H]1O2
3.6,COc1ccc(NC(=O)Nc2cccc3c2O[C@@H](CN(C)C(=O)Nc2ccc(OC)cc2)[C@@H](C)CN([C@H](C)CO)C3=O)cc1
-2.0,C[C@@H]1CN([C@H](C)CO)C(=O)c2cccc(NS(C)(=O)=O)c2O[C@@H]1CN(C)Cc1ccc(C(=O)O)cc1
0.1,CCCC#Cc1ccc2c(c1)O[C@H](CN(C)C(=O)c1cnccn1)[C@H](C)CN([C@@H](C)CO)S2(=O)=O
3.5,CN1CCN(C(=O)C[C@@H]2C[C@@H]3c4cc(NC(=O)Nc5ccc(F)cc5)ccc4O[C@@H]3[C@@H](CO)O2)CC1
-0.5,CCCC(O)C#Cc1cnc2c(c1)C(=O)N([C@H](C)CO)C[C@H](C)[C@H](CN(C)S(=O)(=O)c1ccc(C)cc1)O2 (stereo not given in full)
-2.1,CCCN1C[C@@H](C)[C@@H](OC)CN(C)C(=O)c2ccc(NC(=O)C3CCC3)cc2OC[C@@H]1C
11.5,COc1cc(NC(C)CCCN)c2nc(C)ccc2c1Oc1ccc(F)cc1 (stereo not given)
-6.0,C[C@@H]1CN([C@@H](C)CO)C(=O)Cc2cc(NS(=O)(=O)c3cn(C)cn3)ccc2O[C@@H]1CN(C)Cc1ccc(C(=O)Nc2ccccc2N)cc1
13.2,C[C@@H]1CN([C@@H](C)CO)S(=O)(=O)c2ccc(C#CCN(C)C)cc2O[C@H]1CN(C)Cc1ccccc1
-2.9,CC(C)NC(=O)Nc1ccc2c(c1)C(=O)N([C@H](C)CO)C[C@H](C)[C@H](CN(C)Cc1ccc(C(=O)O)cc1)O2
-0.1,C[C@H]1CN([C@@H](C)CO)C(=O)c2cccc(N(C)C)c2O[C@@H]1CN(C)C(=O)Nc1ccc(C(F)(F)F)cc1
-4.8,C[C@@H]1CN([C@@H](C)CO)C(=O)c2cc(-c3ccc(C#N)cc3)cnc2O[C@@H]1CN(C)Cc1cncnc1
1.9,O=C(Nc1cccc(F)c1)N1CC(=O)N2[C@H](C1)[C@@H](c1ccc(Br)cc1)[C@@H]2CO
-1.3,COc1ccc(S(=O)(=O)N(C)C[C@@H]2Oc3ccc(NC(=O)Nc4ccc(C(F)(F)F)cc4)cc3CC(=O)N([C@H](C)CO)C[C@@H]2C)cc1
-1.1,C[C@H]1CN([C@@H](C)CO)C(=O)Cc2cc(NC(=O)Cn3cnnn3)ccc2O[C@@H]1CN(C)Cc1ccc(C(=O)Nc2ccccc2N)cc1
0.4,C[C@@H]1CCCCO[C@H](CN(C)Cc2ccc(C(=O)O)cc2)[C@H](C)CN([C@@H](C)CO)C(=O)c2cc(NC(=O)Nc3ccc4c(c3)OCO4)ccc2O1
-2.0,C[C@@H]1CN([C@@H](C)CO)C(=O)c2cc(-c3cccc(C#N)c3)cnc2O[C@H]1CN(C)Cc1cccnc1
-3.5,CC(=O)N1CC(=O)N2[C@H](CO)[C@H](c3ccc(C#Cc4cccnc4)cc3)[C@@H]2C1
-2.4,C[C@H]1CN([C@@H](C)CO)C(=O)Cc2cc(NC(=O)C3CC3)ccc2O[C@H]1CN(C)C(=O)Nc1ccc2c(c1)OCO2
-9.7,C[C@H]1CCCCO[C@@H](CN(C)C(=O)Nc2ccccc2)[C@@H](C)CN([C@@H](C)CO)C(=O)c2cc(N(C)C)ccc2O1
3.6,COc1cc(OC)cc(C2=Cc3ccccc3C(CC(C)=O)N2c2ccc(C#CCCO)cc2)c1 (stereo not given)
-0.9,CN1CCN(C(=O)C[C@@H]2CC[C@H]3[C@@H](COC[C@H](O)CN3C(=O)c3ccccc3F)O2)CC1
